Screens (PubChem)
rRNA inh HTS: inhibits bacterial ribosomal RNA function over humanized ribosomes | E. coli WT GFP vs humanized-ribosome RFP mutants, fluorescence, 24 h; hits give low values; DMSO median 0, no signal -100 | GFP signal change (wild-type ribosome), % (concentration not given with the values) | 350,000 compounds, 1.6% hits;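 active = significant combined selectivity score with lowered wild-type GFP, culture density cut under 30%, mutant RFP and density less affected; inactive = any of these conditions unmet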; also: one replicate is shown; some compounds called inactive have numbers as strong as hits
MLL AF4-AF9 inh: blocks AF4 peptide binding to human AF9; 350,000 compounds, 0.47% hits; inhibition, % at 10 µM; AlphaScreen, biotin-AF4 peptide binding to FLAG-AF9; AID 651704;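 active = every replicate reaching a set inhibition limit, whatever the replicate mean, cut at about 25% in these data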;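 also: 0% = plate neutral control median and 100% = total signal loss; the record names both 10 and 1 µM as test concentration; the first replicate is given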
Target sequence (P42568 whole entry, looked up): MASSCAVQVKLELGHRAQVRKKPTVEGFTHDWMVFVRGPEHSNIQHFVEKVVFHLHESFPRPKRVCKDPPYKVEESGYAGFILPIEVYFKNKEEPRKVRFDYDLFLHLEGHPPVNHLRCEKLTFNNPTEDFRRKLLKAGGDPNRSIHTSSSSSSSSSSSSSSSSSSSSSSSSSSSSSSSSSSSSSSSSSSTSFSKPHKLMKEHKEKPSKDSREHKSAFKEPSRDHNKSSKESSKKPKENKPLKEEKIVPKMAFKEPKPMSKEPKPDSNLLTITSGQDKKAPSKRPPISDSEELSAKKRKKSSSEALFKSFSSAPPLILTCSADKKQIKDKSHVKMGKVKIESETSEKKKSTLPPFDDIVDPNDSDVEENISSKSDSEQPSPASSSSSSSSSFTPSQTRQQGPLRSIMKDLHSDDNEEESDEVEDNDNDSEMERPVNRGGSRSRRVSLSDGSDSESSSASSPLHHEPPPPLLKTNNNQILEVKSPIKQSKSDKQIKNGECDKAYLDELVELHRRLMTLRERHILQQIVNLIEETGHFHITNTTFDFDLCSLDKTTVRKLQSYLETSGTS
FGF22 binding: shifts melting point of recombinant human FGF22; recombinant FGF22 thermal shift, SYPRO orange fluorescence; percent of sucrose octasulfate shift, DMSO zero; calls only at 9.99 µM; 340,000 compounds, 1.5% hits; AID 651658;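 active = melting point raised past a set limit in the mean and every replicate; three in four hits are not shown here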
Target sequence (Q9HCT0 whole entry, looked up): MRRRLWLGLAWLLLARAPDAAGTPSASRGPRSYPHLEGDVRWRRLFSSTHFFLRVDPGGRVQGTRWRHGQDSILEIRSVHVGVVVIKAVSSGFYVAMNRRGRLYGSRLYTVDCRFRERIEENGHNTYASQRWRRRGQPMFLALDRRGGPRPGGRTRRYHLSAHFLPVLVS
rRNA inh HTS OD600: second read-out of rRNA inh HTS, no call of its own (marks repeat the call); OD600 change, %; measured here: OD600 growth;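 optical density of the mix in the first replicate; 0 = DMSO median and -100 = no signal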
rRNA inh HTS RFP: also measured in rRNA inh HTS; calls as there; RFP signal change, %; measured here: RFP humanized mutant strains;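 first replicate; 0 = DMSO median and -100 = no signal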
* = called active by the depositor; i = inactive; + = active, no number. Not all compounds are listed, so the mix of outcomes need not match the whole.

SMILES	rRNA inh HTS	rRNA inh HTS OD600	rRNA inh HTS RFP	MLL AF4-AF9 inh	FGF22 binding
O=C(N[C@H]1C=C[C@H](CC(=O)N2CCc3ccccc3C2)O[C@@H]1CO)C1CCC1	-1	4	-2.8	-6.2	i
CCNC(=O)[C@@H]1[C@@H](CO)[C@@H]2Cn3c(ccc(-c4ccc(F)cc4)c3=O)[C@H]1N2C(C)=O	3	5	-0.4	-1.8	i
CN(C)CC(=O)Nc1ccc2c(c1)[C@H]1C[C@@H](CC(=O)NCc3ccccc3)O[C@H](CO)[C@H]1O2	2	9	-1.8	-0.6	i
COc1ccc(CN(C)C[C@H]2OCCCC[C@@H](C)Oc3ccc(NC(=O)NC(C)C)cc3C(=O)N([C@@H](C)CO)C[C@@H]2C)cc1	0	-11	-2.2	-2.5	i
O=C1c2ccccc2C(=O)N1N=Cc1ccc2c(c1)OCO2	3	9	-6.5	0.3	i
N#C[C@@H]1[C@@H](c2ccc(C#Cc3cccc(F)c3)cc2)[C@H](CO)N1C(=O)C1CC1	1	7	0.7	-1.4	i
CN(C)c1cccc(NC(=O)C2Cc3c(-c4cccnc4)ccnc3O2)c1 (stereo not given)	-1	2	0.3	5.1	i
OC[C@@H]1[C@@H](c2ccccc2)C2(CN(Cc3nccs3)C2)N1CCC(F)(F)F	4	7	-2.4	1.7	i
CO[C@@H]1CN(C)C(=O)c2ccc(NS(=O)(=O)c3ccccc3)cc2OC[C@@H](C)N(Cc2ccccn2)C[C@H]1C	-4	-8	3.1	5.8	i
C[C@@H]1CN([C@@H](C)CO)C(=O)Cc2cc(NC(=O)Nc3ccc(C(F)(F)F)cc3)ccc2O[C@@H]1CN(C)C(=O)Nc1ccc(F)cc1	3	-1	-1.0	0.2	i
C[C@@H]1CN([C@@H](C)CO)C(=O)c2cc(NC(=O)c3ccncc3)ccc2O[C@@H](C)CCCCO[C@H]1CN(C)C(=O)Nc1ccc(F)cc1	-2	-1	0.5	0.5	i
CO[C@@H](CN(C)C(=O)C1CCOCC1)[C@@H](C)CN(C(=O)Nc1ccc(C(F)(F)F)cc1)[C@@H](C)CO	-58	-83	-19	-0.1	i
O=C1NC[C@H](Cc2ccccc2)N(C[C@@H]2CCCN2C[C@H](Cc2ccccc2)N2C[C@H](Cc3ccccc3)N(CC3CCCCC3)C(=O)C2=O)C1=O	-7	-7	2.4	5.2	i
Cc1ccc(S(=O)(=O)N(C)c2ccc(C(=O)NCC(c3ccco3)N3CCCC3)cc2)cc1 (stereo not given)	3	0	-0.2	5.0	i
COC(=O)C[C@H]1CC[C@@H]2[C@H](COc3ccc(NC(=O)Nc4ccccc4C)cc3C(=O)N2C)O1	2	8	1.8	1.1	i
COCC#Cc1ccc2c(c1)O[C@@H](CN(C)C(C)=O)[C@@H](C)CN([C@H](C)CO)S2(=O)=O	3	-2	1.8	-2.3	i
CC1CCC(NC(=O)c2[nH]c(C(F)(F)F)nc2-c2ccccc2)CC1 (stereo not given)	-14	-36	-5.3	-2.6	i
C[C@H]1CN([C@@H](C)CO)C(=O)c2cc(NC(=O)NC3CCCCC3)ccc2O[C@@H]1CN(C)C(=O)Nc1ccc(C(F)(F)F)cc1	0	-5	-1.9	-0.2	i
CC(C)NC(=O)N(C)C[C@H]1Oc2cc(C3=CCCCC3)ccc2S(=O)(=O)N([C@H](C)CO)C[C@H]1C	-2	-5	-0.2	3.8	i
CCCNC(=O)N1[C@@H]2c3ccc(-c4ccccc4OC)c(=O)n3C[C@H]1[C@H](CO)[C@H]2C(=O)N(C)C	4	9	1.0	-1.3	i

Quoted at random: 2 records from the list, in no set order.
SMILES	rRNA inh HTS	rRNA inh HTS OD600	rRNA inh HTS RFP	MLL AF4-AF9 inh	FGF22 binding
COCC#Cc1ccc2c(c1)O[C@@H](CN(C)C(C)=O)[C@@H](C)CN([C@H](C)CO)S2(=O)=O	3	-2	1.8	-2.3	i
CCCNC(=O)N1[C@@H]2c3ccc(-c4ccccc4OC)c(=O)n3C[C@H]1[C@H](CO)[C@H]2C(=O)N(C)C	4	9	1.0	-1.3	i

Remaining list, next part
SMILES	rRNA inh HTS	rRNA inh HTS OD600	rRNA inh HTS RFP	MLL AF4-AF9 inh	FGF22 binding
CC(C)NC(=O)N[C@@H]1CC[C@H](CCn2cc(-c3ccccc3)nn2)O[C@H]1CO	-2	-1	5.8	-0.5	i
C[C@@H]1CN([C@H](C)CO)C(=O)CCCn2nncc2CO[C@@H]1CN(C)C(=O)Nc1cccc(C(F)(F)F)c1	-37	-45	4.3	-0.3	i
COCCN(C[C@H]1[C@H](c2ccccc2)[C@@H](CO)N1C(C)=O)C(=O)c1cccnc1	-2	0	-3.3	-0.3	i
C[C@H](CO)N1C[C@H](C)[C@H](CN(C)Cc2cncnc2)Oc2cc(-c3cccnc3)ccc2S1(=O)=O	-3	3	-2.1	-0.9	i
COc1ccc(S(=O)(=O)N2CCCCC2)cc1NC(=O)c1cccc(S(=O)(=O)N2CCOCC2)c1	-6	0	1.5	5.0	i
CN(C)C(=O)C[C@@H]1CC[C@H]2[C@@H](COC[C@@H](O)CN2Cc2nccs2)O1	4	10	0.2	-6.5	i
COC(=O)[C@]12CCCCC=C1N(Cc1ccco1)C(=O)[C@H](CC(=O)NCc1ccc(C)o1)C2	21	14	6.9	-0.8	i
COCC(=O)Nc1ccc2c(c1)C(=O)N(C)[C@H]1CC[C@H](CC(=O)NC3Cc4ccccc4C3)O[C@H]1CO2	4	8	-0.4	0.4	i
COc1cccc(-c2ccc3c(c2)O[C@@H](CN(C)C(C)=O)[C@H](C)CN([C@H](C)CO)S3(=O)=O)c1	-1	-11	-1.6	1.3	i
O=C(C[C@@H]1CC[C@@H](NC(=O)c2cccc(F)c2)[C@@H](CO)O1)Nc1nccs1	-4	4	0.2	-2.2	i
O=C(Nc1ccc(F)cc1)N[C@@H]1CC[C@@H](CC(=O)N2CCOCC2)O[C@@H]1CO	3	0	-3.6	-1.7	i
O=S(=O)(NCC[C@H]1CC[C@H](NS(=O)(=O)c2cccc(Cl)c2)[C@H](CO)O1)c1cccc(F)c1	-7	-15	6.0	0.1	i
Cn1cnc(CCNC(=O)C[C@@H]2CC[C@@H]3[C@H](COC[C@@H](O)CN3C(=O)Nc3ccc(F)cc3)O2)c1	5	6	-5.7	0.9	i
C[C@H]1CN([C@@H](C)CO)C(=O)c2cc(-c3ccc(C(=O)N(C)C)cc3)cnc2O[C@@H]1CN(C)Cc1ccc(C(=O)O)cc1	4	11	-3.7	-3.8	i
O=C(Nc1cc(F)ccc1F)N[C@@H]1CC[C@@H](CCn2cc(C3CC3)nn2)O[C@@H]1CO	2	-11	-1.0	0.0	i
O=C(C[C@H]1CC[C@H]2[C@@H](COC[C@@H](O)CN2C(=O)c2ccccn2)O1)NC1CCC1	5	12	-2.9	1.1	i
C/C=C/c1ccc2c(c1)O[C@H](CN(C)C(=O)Nc1ccc(C(F)(F)F)cc1)[C@H](C)CN([C@H](C)CO)S2(=O)=O	1	7	-2.1	2.0	+
C[C@H](NC(=O)C[C@H]1CC[C@@H]2[C@H](COc3ccc(NC(=O)C4CCOCC4)cc3C(=O)N2C)O1)c1ccccc1	0	-12	-3.7	-0.9	i
C=CCCC1CN(Cc2ccc(OC)cc2)S(=O)(=O)c2c(cccc2N2CCCCC2)O1 (stereo not given)	39	13	20	0.6	i
CCN(CC)c1ccc(NC(=O)COC(=O)Cc2ccsc2)cc1	2	-1	-0.6	4.2	i
CC1(C(=O)Nc2cccc3cccnc23)CCN1C(=O)CCC1CCCC1 (stereo not given)	-42	-61	-2.0	-1.1	i
COc1ccc(S(=O)(=O)Nc2ccc3c(c2)CC(=O)N([C@@H](C)CO)C[C@@H](C)[C@H](CN(C)S(=O)(=O)c2cccs2)O3)cc1	-4	-13	1.6	-1.4	i
CC=Cc1ccc2n(c1=O)C[C@@H]1[C@@H](CO)[C@H](C(=O)NCCc3ccncc3)N(Cc3cncnc3)[C@H]21 (mixture of isomers)	-1	-1	-0.3	-0.5	i
C[C@@H]1CN([C@@H](C)CO)C(=O)c2cc(C#C[C@@H](C)O)cnc2O[C@H]1CN(C)C(=O)c1ccc(F)cc1	4	13	0.2	3.6	i
O=C(C[C@H]1CC[C@@H]2[C@H](COC[C@H](O)CN2Cc2ccc(F)cc2)O1)NCc1ccccc1Cl	1	6	3.7	0.8	i
O=C(C[C@H]1C[C@@H]2c3cc(NC(=O)c4cccnc4)ccc3O[C@@H]2[C@H](CO)O1)NCc1ccccn1	6	6	-0.7	-1.5	i
C[C@@H]1CN([C@H](C)CO)C(=O)Cc2cc(NC(=O)Nc3ccccc3)ccc2O[C@@H]1CN(C)Cc1ccc(C(F)(F)F)cc1	1	-2	2.8	0.0	i
Cc1noc(C)c1S(=O)(=O)Nc1ccc2c(c1)C(=O)N([C@@H](C)CO)C[C@@H](C)[C@@H](CN(C)Cc1ccc3c(c1)OCO3)O2	-2	-1	-2.1	0.0	i
O=C(CC[C@H]1O[C@@H](n2ccc(=O)[nH]c2=O)[C@H](O)[C@@H]1O)N1CCN(Cc2cccc3ccccc23)CC1	14	16	2.3	3.5	i
O=C(N[C@@H]1C=C[C@@H](CC(=O)N2CCC(Cc3ccccc3)CC2)O[C@@H]1CO)c1cnccn1	-3	-7	0.3	-0.1	i

Profiles, quoted from the list.
Shown for `CC=Cc1ccc2n(c1=O)C[C@@H]1[C@@H](CO)[C@H](C(=O)NCCc3ccncc3)N(Cc3cncnc3)[C@H]21` (mixture of isomers) = rRNA inh HTS: -1; rRNA inh HTS OD600: -1; rRNA inh HTS RFP: -0.3; MLL AF4-AF9 inh: -0.5; FGF22 binding: i
Shown for `O=C(CC[C@H]1O[C@@H](n2ccc(=O)[nH]c2=O)[C@H](O)[C@@H]1O)N1CCN(Cc2cccc3ccccc23)CC1` = rRNA inh HTS: 14; rRNA inh HTS OD600: 16; rRNA inh HTS RFP: 2.3; MLL AF4-AF9 inh: 3.5; FGF22 binding: i
Shown for `Cc1noc(C)c1S(=O)(=O)Nc1ccc2c(c1)C(=O)N([C@@H](C)CO)C[C@@H](C)[C@@H](CN(C)Cc1ccc3c(c1)OCO3)O2` = rRNA inh HTS: -2; rRNA inh HTS OD600: -1; rRNA inh HTS RFP: -2.1; MLL AF4-AF9 inh: 0.0; FGF22 binding: i

The results go on.
SMILES	rRNA inh HTS	rRNA inh HTS OD600	rRNA inh HTS RFP	MLL AF4-AF9 inh	FGF22 binding
COc1ccc2c3c([nH]c2c1)[C@@H](CO)N(C(C)=O)CC31CCN(S(=O)(=O)c2cccs2)CC1	-3	-26	5.2	-4.0	i
C[C@@H]1CCCCO[C@H](CN(C)S(=O)(=O)c2ccc(F)cc2)[C@@H](C)CN([C@H](C)CO)C(=O)c2cc(NS(=O)(=O)c3ccccc3)ccc2O1	-2	-5	-1.4	-0.7	i
C[C@@H]1CCCCO[C@@H](CN(C)Cc2ccc(C(=O)O)cc2)[C@@H](C)CN([C@H](C)CO)C(=O)c2cc(NC(=O)CCC(F)(F)F)ccc2O1	2	-1	-1.9	-5.3	i
C[C@@H]1CN([C@H](C)CO)C(=O)c2cc(C#CCN(C)C)cnc2O[C@@H]1CN(C)Cc1ccncc1	3	7	-4.0	-1.1	i
CCC(c1nnnn1-c1ccc2c(c1)OCCO2)N1CCN(c2cccc(C)c2C)CC1 (stereo not given)	20	10	3.2	0.8	i
COc1ccc(NC(=O)CSc2nc(N)cc(=O)[nH]2)cc1S(=O)(=O)N1CCCCC1	16	15	0.0	0.2	i
O=S1(=O)N[C@@H](Cc2ccccc2)COc2cc(NCCCN3CCOCC3)ccc21	10	8	-1.3	-1.1	i
Cc1noc(C)c1NC(=O)N(C)C[C@@H]1OCCCC[C@H](C)Oc2ccc(NC(=O)Cc3ccccc3)cc2C(=O)N([C@@H](C)CO)C[C@@H]1C	2	4	-0.4	-2.1	i
C[C@@H]1CN([C@@H](C)CO)S(=O)(=O)c2ccc(-c3ccncc3)cc2O[C@@H]1CN(C)C(=O)CN(C)C	7	8	0.0	-1.6	i
O=C(C[C@@H]1CC[C@@H]2[C@H](COC[C@H](O)CN2C(=O)Nc2ccc(Cl)cc2)O1)N1CCCCC1	-22*	-12*	-0.8*	1.2	i
COc1ccc(NC(=O)N(C)C[C@@H]2OCCCC[C@H](C)Oc3ccc(NC(=O)Nc4c(C)noc4C)cc3C(=O)N([C@H](C)CO)C[C@@H]2C)cc1	0	-1	-1.7	-2.8	i
O=C(C[C@H]1CC[C@H]2[C@@H](COC[C@H](O)CN2S(=O)(=O)c2ccc(F)cc2)O1)N[C@@H]1CCN(Cc2ccccc2)C1	-4	-7	0.0	8.0	i
CO[C@H]1CN(C)C(=O)c2cc(NC(=O)C3CCC3)ccc2OC[C@H](C)N(Cc2ccccn2)C[C@H]1C	0	-2	-0.5	0.2	i
Cc1ccc(S(=O)(=O)N(C)C[C@H]2OCCCC[C@H](C)Oc3ccc(NS(=O)(=O)c4ccccc4)cc3C(=O)N([C@@H](C)CO)C[C@@H]2C)cc1	2	10	2.6	1.5	i
Cc1noc(C)c1NC(=O)Nc1ccc2c(c1)CC(=O)N([C@@H](C)CO)C[C@@H](C)[C@@H](CN(C)Cc1ccccc1)O2	4	10	-0.9	0.1	i
COc1ccc(NC(=O)N(C)C[C@H]2Oc3ccc(NC(=O)CCCN(C)C)cc3C(=O)N([C@H](C)CO)C[C@@H]2C)cc1	3	8	-0.7	0.6	i
Cc1ccccc1C(=O)N1CCC[C@H]1C(=O)N1CCC[C@H]1C(=O)NCc1ccccn1	13	17	0.6	0.4	i
